# PABP FP inh: blocks human PABP binding to poly(A) RNA; fluorescence polarization; inhibition, % at 35 µM; actives 1% (n = 290,000);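 active means 50% or more with normal probe brightness, or confirmed in later tests; inconclusive means above 50% with abnormal brightness, or retests that disagree; inactive means below 50% or failed in later tests; about a fifth of its hits are not listed in these tables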;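 further: calls also rest on retests at 20 µM and on dose response follow-up; controls were probe without protein and protein plus probe with vehicle; some compounds called inactive have numbers as strong as hits; many hits fall short of the cut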
# Target sequence (P11940 whole entry, looked up): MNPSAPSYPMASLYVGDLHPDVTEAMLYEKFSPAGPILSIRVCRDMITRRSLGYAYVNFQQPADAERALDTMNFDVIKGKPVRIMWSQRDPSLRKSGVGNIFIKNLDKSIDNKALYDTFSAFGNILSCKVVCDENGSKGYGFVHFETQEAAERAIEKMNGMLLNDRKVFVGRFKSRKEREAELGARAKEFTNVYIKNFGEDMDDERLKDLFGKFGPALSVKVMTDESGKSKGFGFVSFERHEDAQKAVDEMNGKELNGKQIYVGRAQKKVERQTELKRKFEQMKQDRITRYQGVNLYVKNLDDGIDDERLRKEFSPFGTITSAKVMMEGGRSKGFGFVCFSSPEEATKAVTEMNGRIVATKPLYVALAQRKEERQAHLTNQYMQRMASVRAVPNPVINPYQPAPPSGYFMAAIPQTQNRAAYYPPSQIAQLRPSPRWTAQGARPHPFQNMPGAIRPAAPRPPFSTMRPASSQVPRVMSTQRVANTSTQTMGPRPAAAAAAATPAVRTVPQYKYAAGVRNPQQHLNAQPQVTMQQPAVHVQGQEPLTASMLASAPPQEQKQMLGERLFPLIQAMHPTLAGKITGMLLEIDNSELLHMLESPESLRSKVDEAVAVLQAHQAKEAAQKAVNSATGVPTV
# UUG fidelity: modulators of start codon recognition fidelity in yeast. S. cerevisiae UUG-firefly luciferase reporter, luminescence/redox ratio. activity score, % at 18.7 µM. actives 0.13% (n = 350,000). AID 602363;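 active means replicate mean at a twofold rise or more, about +100% in these data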;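 further: firefly luciferase made from a UUG start codon reports start codon fidelity; reporter light over untreated wells divided by growth signal over untreated wells; some hits fall short of that in this replicate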
# MT1-MMP act inh: inhibitors of human MT1-MMP activation | actives 0.061% (n = 360,000) | HT1080 RFP-PRO-GFP cells, GFP/RFP ratio fluorescence, overnight; percent of plate control window, DMSO zero | GFP/RFP ratio change, % at 20 µM | P50281;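 active means GFP/RFP ratio change of at least 30% with cell ATP level not reduced by more than half and red fluorescence within 50% of control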; further: strong numbers were not always called active
#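 Test system: HT1080 cells expressing an RFP-PRO-GFP fluorescent reporter construct / Compound dosing: single-point 20 µM compound, 1% DMSO / Schedule: cells overnight before dosing, compound overnight, 37 °C, 5% CO2 / Evaluation: GFP/RFP fluorescence ratio / Control set: DMSO and RFP-L50D-GFP cell wells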
# eIF4H inh: inhibitors of RNA binding by human eIF4H; actives 0.94% (n = 290,000); inhibition, % at 35 µM; Q15056; AID 2012; eIF4H fluorescence polarization binding assay;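 active means 50% or more with normal probe brightness, or confirmed in later tests; inconclusive means above 50% with abnormal brightness, or retests that disagree; inactive means below 50% or failed in later tests; about a fifth of its hits are not listed in these tables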;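 further: calls also rest on retests at 20 µM and on dose response follow-up; 0% = protein and probe with vehicle and 100% = probe without protein; strong numbers were not always called active; many hits fall short of the cut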
# Env fusion inh: inhibitors of HIV Env-mediated cell fusion | HeLa-JRFL Env/CEM21 cell fusion, luciferase | inhibition, % at 12.3 µM | actives 1.1% (n = 360,000) | AID 651610;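 active means mean replicate inhibition score of at least 50 and every replicate individually at or above 50; inconclusive means only one of the two criteria met; inactive means mean below 50 and not all replicates reaching 50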;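 further: 0% = plate neutral controls and 100% = maraviroc near 300 nM; one replicate is shown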
# CSC inhib: cancer stem cell inhibition; cancer stem cell-like cells viability, luminescence; inhibition, % at 7.5 µM; actives 1.1% (n = 300,000);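 active means mean at 75% or more and at least half the replicates too; inconclusive means mean and replicates disagree; tested in HMLE shEcad cells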;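 further: 0% = median of negative and 100% = median of positive control wells; the first replicate is given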
# Rce1 inhib: inhibitors of yeast Ras-converting enzyme. yeast membranes, quenched prenylated peptide cleavage fluorescence. calls only. actives 0.27% (n = 290,000). AID 2563;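 active means fall in fluorescence gain of 50% or more versus controls, with final raw signal at or below 3038400; inconclusive means same 50% fall but final raw signal above 3038400; inactive means fall in fluorescence gain under 50%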;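 further: plate controls were neutral control wells for no effect and wells lacking membranes for full effect; tested at 10 µM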
# Target sequence (Q03530 whole entry, looked up): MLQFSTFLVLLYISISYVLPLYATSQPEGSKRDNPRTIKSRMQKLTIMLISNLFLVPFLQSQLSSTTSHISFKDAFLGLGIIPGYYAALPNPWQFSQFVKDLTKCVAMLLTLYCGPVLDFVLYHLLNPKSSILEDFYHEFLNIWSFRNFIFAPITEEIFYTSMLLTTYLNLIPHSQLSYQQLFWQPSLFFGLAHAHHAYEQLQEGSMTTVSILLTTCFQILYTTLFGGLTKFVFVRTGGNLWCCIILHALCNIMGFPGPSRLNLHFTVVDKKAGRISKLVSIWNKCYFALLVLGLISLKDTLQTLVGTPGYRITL
# MT1-MMP act inh RFP: further read-out of MT1-MMP act inh, marked with its call; RFP signal change, %; measured here: RFP expression control read;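 0 = vehicle wells; hits needed this value within 50% of zero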
# * marks the source's active call; other numbers are inactive results; i = inactive; ? = inconclusive; . = no result given; + = active, no number; & = joins results of further samples. Rows are unselected. Share with any hit: about 2.9%.
SMILES,PABP FP inh,UUG fidelity,MT1-MMP act inh,MT1-MMP act inh RFP,eIF4H inh,Env fusion inh,CSC inhib,Rce1 inhib
CSCc1cc(N(C)c2ccccc2)nc(-c2ccccn2)n1,-14,-32,-1,-4,1,14,39,i
O=C(CCSc1ccc(Cl)cc1)N1CCCCCC1,2,-2,2,3,-4,.,11,i
CCCC(=O)Nn1cnc2c(c1=O)C1(CCCCC1)Cc1ccccc1-2,13,8,-2,5,6,-146,-1,i
CCC1=C2CC[C@H]3C(=O)N(CC(=O)OC)C(=O)[C@H]3[C@H]2[C@@]2(C)C(=NCC(=O)OC)OC(=O)N2C1=O,5,-10,4,3,-6,21,-11,i
CCc1ccc(NC(=O)CN(c2ccc3c(c2)OCO3)S(=O)(=O)c2c(C)noc2C)cc1,-8,-7,-2,5,-9,-20,-17,i
FC(F)(F)c1cccc(NC(=S)NCc2ccccn2)c1,4,-31,2,2,-6,.,-33,i
CCOC(=O)C1=C(C)NC(=O)C1(NC(=O)c1cccnc1)C(F)(F)F (stereo unspecified),-10,-16,3,3,-3,.,-9,i
COCCNC(=O)c1c(CSc2ccc(Cl)cc2)noc1C(=O)NCc1ccccc1,.,-12,-2,1,.,-8,-6,i
CC(C)Cn1c(CN2CCN(C(=O)c3ccco3)CC2)nc2c1c(=O)n(C)c(=O)n2C,14,.,2,0,-2,9,-3,i
COc1ccc(-c2cc(C(F)(F)F)nc(SCC(=O)N3CC(C)OC(C)C3)n2)cc1OC (stereo unspecified),0,.,-5,1,-6,.,.,i
CN(CC#CCC(c1ccccc1)c1ccccc1)C(C)(C)C,0,-13,-16,-2,-6,-16,10,i
Cc1ccc([C@@H]2C[C@H]3[C@@H](CN2S(=O)(=O)c2ccc(Cl)cc2)C(=O)C[C@@H](c2ccccc2)N3S(=O)(=O)c2ccc(C)cc2)cc1,.,-9,-2,-3,.,0,.,.
N#C/C(=C\c1cccc([N+](=O)[O-])c1)C(=O)NCc1cccnc1,5,.,4,9,-5,.,-5,i
C[C@H](CO)N1C[C@H](C)[C@@H](CN(C)C(=O)c2ccccc2)OCc2cnnn2CCCC1=O,.,-11&-8&7,1,4,.,-29,.,.
CC(=O)N(CCC1(C(C)C)CCOC(C)(C)C1)C(C)c1cccs1 (stereo unspecified),-12,-9,-2,-2,-13,8,-3,i
COc1ccc(NC(=O)NNC(=O)c2cc(C3CC3)nc3ccccc23)c(OC)c1,-5,-11,-2,-2,2,5,-5,i
CCOc1ccc(N(Cc2ccc(OC)cc2)C(=O)c2ccco2)cc1,10,.,2,-3,4,-21,10,+
O=C(CCNC(=O)c1ccccc1Cl)NCCc1ccc(C(F)(F)F)cc1,-11,-17,1,0,-8,-4,-3,i
NC(=O)CC(NC(=O)c1ccccc1)c1ccc(NCCc2cccc(F)c2)c([N+](=O)[O-])c1 (stereo unspecified),1,-5,6,0,-13,-44,-9,i
CCOC(=O)C1CCN(C(=O)Nc2ccc(OC)c(OC)c2)CC1,10,.,-4,1,-4,-14,.,i
COc1ccc(NC(=O)c2sc3nc(C)nc(N4CCN(c5ccccn5)CC4)c3c2C)c(OC)c1,2,-21,0,-10,-13,?,-12,i
CCc1cc2c(SCC(=O)c3cccs3)ncnc2s1,0,.,-3,-2,-13,-73,-17,i
COc1ccc(C(=O)NNC(=O)CSc2nnc(COc3ccccc3)n2C)cc1,-5,1,6,4,-17,-86,-6,i
COc1ccccc1/C=C/C(=O)c1ccc(NC(C)=O)cc1,4,-3,-13,-18,-1,-37,60,i
O=C(Nc1nnc([C@@H]2C[C@H](O)[C@@H](CO)O2)s1)c1cccc(OC(F)(F)F)c1,.,3,0,5,.,-8,.,.

# Individual results from the entries so far:
# In eIF4H inh, CC(=O)N(CCC1(C(C)C)CCOC(C)(C)C1)C(C)c1cccs1 (stereo unspecified) is entered as -13
# In eIF4H inh, O=C(CCNC(=O)c1ccccc1Cl)NCCc1ccc(C(F)(F)F)cc1 is entered as -8

# The listing continues:
SMILES,PABP FP inh,UUG fidelity,MT1-MMP act inh,MT1-MMP act inh RFP,eIF4H inh,Env fusion inh,CSC inhib,Rce1 inhib
CC(=O)N1CCCC(C(=O)c2ccc3c4c(cccc24)CC3)C1 (stereo unspecified),-7,.,1,1,-1,3,11,i
COc1ccc(C(=O)/C=C/C(=O)N(CC(=O)NC2CCCCC2)Cc2ccccc2)c(O)c1,-4,.,-4,-1,4,-102,.,i
CCCc1nc2ccccc2c2nc(N)nn12,-3,-20,2,1,-12,-12,3,i
COc1cc(Nc2cc(C)nc3nc(C)nn23)cc(OC)c1OC,-1,-3,6,2,2,14,-9,i
CN(C)c1ccc(C=C2C(=O)OC(C)(C)OC2=O)cc1,12,.,8,6,-10,5,12,i
CCCOC(=O)c1ccc(NC(=O)Oc2ccccc2)cc1,8,.,5,8,-7,.,5,i
COc1ccc(-c2cnc3ncnn3c2N)cc1,3,.,1,5,-8,-24,1,i
CCOC(=O)c1cccc(NC(=O)c2c(NCc3ccccc3)[nH]c(=O)[nH]c2=O)c1,.,-8,5,-7,.,-126,62,i
CC(C(=O)O)n1c(C(F)(F)F)nc2ccccc21 (stereo unspecified),7,-21,1,1,-18,20,-16,i
Cc1ccc(C(=O)NCCc2ccccn2)cc1S(=O)(=O)N1CCOCC1,9,.,.,.,-3,.,-7,i
Cc1ccc(S(=O)(=O)N2CCN(C(=O)c3c(C)nn(-c4ccccc4)c3Cl)CC2)cc1,4,-14,2,-8,8,.,.,i
CCOc1ccc(NC(=O)CCC(=O)NNC(=O)c2ccc(Br)o2)cc1,-2,-12,0,2,-11,11,-8,i
Cc1cccc(OCc2nnc(SCC(=O)NC3CCCCC3)n2C)c1,10,17,-1,-4,1,18,7,i
Cc1nn(-c2ccccc2)c(C)c1NC(=O)COC(=O)CCCOc1ccccc1,.,-9,7,10,.,4,-12,i
O=C(Nc1ccccc1N1CCCC1)C1CCN(C(=O)c2ccc(Cl)cc2)CC1,.,15,.,.,.,13,-16,i
C=CCn1c(Cc2ccc(OCC)cc2)nnc1SCC(N)=O,1,11,0,2,-5,77*,-10,i
O=C(NCCCN=C1NS(=O)(=O)c2ccccc21)c1ccc(S(=O)(=O)N2CCOCC2)cc1,-3,.,-3,7,0,.,16,i
Cc1cc(C)c(NC(=O)CCN2C(=O)c3ccccc3S2(=O)=O)c(C)c1,.,-1,2,0,.,-6,-7,i
CC(C)c1nc2ccc(C(=O)O)cc2[nH]1,-2,5,-2,2,8,.,2,i
CC(C)NC(=O)C1CCN(C(=O)c2ccc(-c3ccccc3)cc2)CC1,3,5,1,4,-6,.,2,i
CCOC(=O)N1CCN(Cc2ccc3c(c2)OCO3)CC1,-4,-18,0,5,12,-10,-13,i
Cc1ccc(NS(=O)(=O)c2csc(C(N)=O)c2)c(C)c1,6,1,3,-3,-8,13,3,i
Cc1sc(NC(=O)c2ccco2)c(CN2CCC(C)CC2)c1C,-7,-17,-13,-5,-3,.,26,i
COc1ccc(/C=N/NC(=O)CN(c2ccc(OC)cc2)S(=O)(=O)c2ccccc2)cc1,-7,.,-4,0,0,3,-12,i
O=C(CN(C(=O)c1nsc(Cl)c1Cl)c1cccc(F)c1)NC1CCCC1,30,-10,-3,-1,-1,6,-12,i

# Carrying on.
SMILES,PABP FP inh,UUG fidelity,MT1-MMP act inh,MT1-MMP act inh RFP,eIF4H inh,Env fusion inh,CSC inhib,Rce1 inhib
O=C(COC(=O)c1ccc([N+](=O)[O-])cc1)NC1CCCC1,-9,-10,-1,5,-3,13,-4,i
CC(C)(C)c1ccc(-c2ncccc2O)cc1,5,-8,5,1,-4,-36,-3,i
Cc1noc(C)c1S(=O)(=O)Nc1ccc2c(c1)C(=O)N([C@H](C)CO)C[C@H](C)[C@@H](CN(C)C(=O)NC1CCCCC1)O2,.,-13&10,-1,2,.,-4,4,.
COc1ccc(/C=N/Nc2nc(-c3ccc(Cl)cc3)cc(C(F)(F)F)n2)c(OC)c1,6,.,-2,1,-7,16,11,i
COc1cc(/C=N\NC(=O)CN2CCOCC2)ccc1OCC(=O)Nc1ccc(C)c(C)c1,1,-13,-2,-4,-3,.,18,i
Nc1cc(C(F)(F)F)ccc1C(=O)O,1,5,-2,3,2,-1,-7,i
Cc1ccc2c(c1)NC(=O)C(CC(=O)NCCN(C)C)O2 (stereo unspecified),1,-13,4,8,-8,-4,0,i
COC(=O)C1CSC(C(=O)OC)N1C(=O)Nc1ccc(Cl)c(Cl)c1 (stereo unspecified),-9,-6,-1,2,-6,.,-4,i
CC(C)(C)c1ccc(S(=O)(=O)N2CCCCC2C(=O)NCc2ccccn2)cc1 (stereo unspecified),-4,-31,2,-8,0,24,-14,i
CCOC(=O)c1oc2ccc(S(=O)(=O)n3nc(-c4cc(OC)c(OC)c(OC)c4)cc3N)cc2c1C,20,.,5,-7,5,23,1,i
CC(C)n1nnnc1SCC(=O)Nc1ccccc1N1CCOCC1,-1,-3,-7,-5,-3,.,-11,i
Cn1c(SCC(=O)c2ccc3c(c2)OCO3)nnc1-c1ccccn1,2,-2,1,1,-6,.,-8,i
CC(=O)Nc1ccc(C(=O)N/N=C/c2cccnc2)cc1,7,.,0,3,3,-16,-4,i
CCOc1nnc(C)c2c(C)n(-c3cccc(Cl)c3)nc12,?,.,-19,4,?,.,-13,i

# Structures above with a thiophene ring, fused or not:
SMILES,PABP FP inh,UUG fidelity,MT1-MMP act inh,MT1-MMP act inh RFP,eIF4H inh,Env fusion inh,CSC inhib,Rce1 inhib
CC(=O)N(CCC1(C(C)C)CCOC(C)(C)C1)C(C)c1cccs1 (stereo unspecified),-12,-9,-2,-2,-13,8,-3,i
COc1ccc(NC(=O)c2sc3nc(C)nc(N4CCN(c5ccccn5)CC4)c3c2C)c(OC)c1,2,-21,0,-10,-13,?,-12,i
CCc1cc2c(SCC(=O)c3cccs3)ncnc2s1,0,.,-3,-2,-13,-73,-17,i
Cc1ccc(NS(=O)(=O)c2csc(C(N)=O)c2)c(C)c1,6,1,3,-3,-8,13,3,i
Cc1sc(NC(=O)c2ccco2)c(CN2CCC(C)CC2)c1C,-7,-17,-13,-5,-3,.,26,i

# Compound activity (PubChem)
